# Source: PubChem BioAssay (National Center for Advancing Translational Sciences (NCATS))
# Lassa entry inh – inhibitors of Lassa virus binding or cell entry. Lassa virus pseudotype entry inhibition, cell reporter; control for the full effect not named in the record. Potency, µM (top dose mostly 37.9 µM), inactives show at the highest dose activity change, negative = inhibition, usual class: inhibitors. hit rate 1.2% among 300,000. AID 540256; active means well fitted inhibition curve with a large enough effect; inconclusive means small, poorly fitted or top-dose-only effect, or effect the other way; inactive means flat fitted curve, though single readings scatter; tested in HEK293 cells; note: % is set by controls: 0 for no effect and ±100 for the full control effect; nearly all actives have a fitted effect of over 50% in size; luciferase read-out
# Marburg entry inh – Marburg virus entry inhibition; Marburg virus pseudotyped entry inhibition, cell reporter; control for the full effect not named in the record; about a third of the inactives were read at about 46 µM; Potency, µM (highest dose often 37.8 µM), for the others: at the highest dose activity change, negative = inhibition, actives largely listed as inhibitors; hit rate 1.8% among 300,000; AID 540276; active = well fitted inhibition curve with a large enough effect; inconclusive = small, poorly fitted or top-dose-only effect, or effect the other way; inactive = flat fitted curve, though single readings scatter; tested in HEK293 cells; about a fifth of its hits are not listed in these tables; note: % is set by controls: 0 for no effect and ±100 for the full control effect; luciferase read-out
# NS1 function inh – blocks influenza NS1 protein function. S. cerevisiae slowed by influenza A NS1, growth recovery by OD600. Potency, µM (series often up to 46.1 µM), for inactives: at the top dose activity, positive = more growth. hit rate 0.4% among 270,000; active means well fitted rising curve with a large enough effect; inconclusive means small, poorly fitted or top-dose-only effect; inactive means no such curve, though single readings can be large or run the other way; note: nearly all actives have a fitted effect of over 50% in size
#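 S. cerevisiae expressing influenza A NS1, grown in glucose, washed, then diluted 1:100 into pH 6.0 -URA galactose medium with 23 nl compound. Growth recovery read as OD600; NS1-free strain serves as control.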
# SARS PLpro yeast – inhibitors of SARS-CoV papain-like protease in yeast | hit rate 0.19% among 330,000 | S. cerevisiae expressing SARS-CoV PLpro, growth rescue; control for the full effect not named in the record | Potency, µM (top dose mostly 32.9 µM), without a hit: at the highest dose activity, positive = growth rescue; active means well fitted rising curve with a large enough effect; inconclusive means small, poorly fitted or top-dose-only effect; inactive means no such curve, though single readings can be large or run the other way; note: 0% is about no effect; nearly all actives have a fitted effect of over 55% in size; growth read by luminescence after 48 h
# RE007 growth inh – less growth of the S. pombe RE007 Vpr strain. S. pombe RE007 Vpr strain, BacTiter-Glo ATP luminescence, 24 h; control for the full effect not named in the record. Potency, µM (titrated, usually from 92.2 µM), without a hit: at the highest dose activity change, negative = less growth. hit rate 0.21% among 360,000; active = well fitted falling curve with a large enough effect; inconclusive = small, poorly fitted or top-dose-only effect; inactive = no such curve, though single readings can be large or run the other way;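 note: % is set by controls: 0 for no effect and ±100 for the full control effect; nearly all actives have a fitted effect of over 50% in size; the assay follows cell death caused by Vpr and the record does not say whether a fall means rescue or toxicity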
#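 Fission yeast strain RE007, carrying one chromosomally integrated HIV-1 vpr copy, was seeded at OD 0.01 in PMG+AL medium with 23 nL pinned compound. After 24 h at 30 °C and 99% humidity, viability was read by BacTiter-Glo luminescence.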
# StopGo reporter – FMDV 2A StopGo reporter, luciferase signal | human cells with a luciferase reporter of 2A StopGo recoding; control for the full effect not named in the record | AID 1159524 | hit rate 1.2% among 410,000 | Potency, µM (titrated, usually from 57.9 µM), without a hit: at the top dose signal change, negative = less light; active = well fitted falling curve with a large enough effect; inconclusive = small, poorly fitted or top-dose-only effect; inactive = no such curve, though single readings can be large or run the other way; tested in HEK293T cells; note: % is set by controls: 0 for no effect and ±100 for the full control effect; nearly all actives have a fitted effect of over 45% in size; luciferase light after 4 h
# Cruzain noTriton – cruzain (T. cruzi) inhibition without detergent; AID 1476; hit rate 2.3% among 200,000; Potency, µM, for inactives: max response, negative = inhibition, hits mostly inhibitors; purified cruzain, Z-FR-AMC fluorescence, no detergent; P25779;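 note: plate controls were enzyme without inhibitor for no effect and buffer without enzyme for full effect; nearly all actives have a fitted effect of over 40% in size; top concentration of the series not given in the record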
# Target sequence (P25779 123-467 limits assumed): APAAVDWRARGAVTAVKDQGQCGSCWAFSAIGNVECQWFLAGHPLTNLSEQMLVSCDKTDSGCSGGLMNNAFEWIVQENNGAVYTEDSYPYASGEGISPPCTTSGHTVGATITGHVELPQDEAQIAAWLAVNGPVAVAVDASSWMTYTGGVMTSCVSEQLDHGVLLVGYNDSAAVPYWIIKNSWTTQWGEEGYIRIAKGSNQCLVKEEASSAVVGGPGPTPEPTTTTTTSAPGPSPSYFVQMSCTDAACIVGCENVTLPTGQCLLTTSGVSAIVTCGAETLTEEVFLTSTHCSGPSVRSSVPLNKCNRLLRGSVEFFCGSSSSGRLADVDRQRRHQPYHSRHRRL
#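 Purified cruzain at 1.5 nM, pre-incubated 15 min with compound at room temperature in 100 mM sodium acetate pH 5.5, 5 mM DTT, 0.00005% Triton X-100. Reaction started with 2 uM Z-FR-AMC; AMC fluorescence increase over 60 s gives rate.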
# Cruzain Triton – cruzain (T. cruzi) inhibition with detergent | hit rate 0.43% among 200,000 | AID 1478 | Potency, µM, for inactives: max response, negative = inhibition, most hits filed as inhibitors | purified cruzain, Z-FR-AMC fluorescence, 0.01% Triton;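 note: plate controls were neutral wells for no effect and buffer without enzyme for full effect; nearly all actives have a fitted effect of over 40% in size; top concentration of the series not given in the record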
#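 In this qHTS format, compounds are incubated with 1.5 nM cruzain for 15 min at room temperature before 2 uM Z-FR-AMC is added. Release of AMC is followed at 360/450 nm, and progress is taken as the 60 s fluorescence difference.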
# * marks the source's active call; other numbers are inactive results; ? = inconclusive; . = no result given; & = joins results of further samples; [ ] = another dose, or the depositor's remark. Unless noted, calls come from the whole dose curve; as a rule, active = well fitted curve in the direction sought with a large enough effect; inconclusive = small, poorly fitted or top-dose-only effect, or another doubt; inactive = no such curve, though single readings can be large; an effect the other way counts as inactive or inconclusive. Potency is the fitted concentration of half-maximal effect.
SMILES,Lassa entry inh,Marburg entry inh,NS1 function inh,SARS PLpro yeast,RE007 growth inh,StopGo reporter,Cruzain noTriton,Cruzain Triton
Cc1nn(-c2ccccc2)c2c1cc1c(=O)[nH]c(=O)nc-1n2-c1cccc(Cl)c1,4%[46.1 µM],7%[46.1 µM],.,.,.,6%,6%,-2.9%
CCCS(=O)(=O)Nc1cc2c(cc1NCc1ccccc1)n(C)c(=O)n2C,1%[46.1 µM],55%[46.1 µM],.,.,.,17%,-4%,-2.0%
Cc1cc(NC(=O)CN2C(=O)NC3(CCC(C)CC3)C2=O)no1 (stereo not drawn),-1%,27%,-1%,14%,-18%,-16%,-4%,-1.0%
Nc1nccc(/C=C/c2c(F)cccc2Cl)n1,3%,-26%[46.1 µM],-8%,0%,6%,0%,.,.
CCOCCCNC(=O)C1(O)c2ccccc2NC(=O)N1c1ccc(C)c(C)c1 (stereo not drawn),.,.,0%,2%,-4%,-9%,.,.
Cc1ccc(CNC(=O)Cn2cncn2)cc1,-13%,2%,3%,0%,0%,15%,-1%,3.8%
CCCCN(CC)C(=O)c1c[nH]c2ccc(S(=O)(=O)Nc3cccc(OC)c3)cc2c1=O,2%[46.1 µM],2%[46.1 µM],.,.,.,32%,-1%,-7.6%
CCSCc1nnc(SCC(=O)Nc2cccc(SC)c2)n1C,-1%,-10%,2%,1%,-11%,-10%,-13%,-8.5%
CCOc1ccc(Nc2c(S(=O)(=O)c3ccc(C)cc3)cnc3ccccc23)cc1,.,?,.,.,.,?,1%,-3.9%
Cc1c(C(=O)N2CCCC2)oc2c1-c1nn(CC(=O)NCCCOC(C)C)cc1CC2,1%[46.1 µM],.,0%,3%,14%,?,10%,-1.0%

# Single records (already shown):
# Listed for CCOc1ccc(Nc2c(S(=O)(=O)c3ccc(C)cc3)cnc3ccccc23)cc1 : Lassa entry inh = .; Marburg entry inh = ?; NS1 function inh = .; SARS PLpro yeast = .; RE007 growth inh = .; StopGo reporter = ?; Cruzain noTriton = 1%; Cruzain Triton = -3.9%
# Listed for CCCCN(CC)C(=O)c1c[nH]c2ccc(S(=O)(=O)Nc3cccc(OC)c3)cc2c1=O : Lassa entry inh = 2%[46.1 µM]; Marburg entry inh = 2%[46.1 µM]; NS1 function inh = .; SARS PLpro yeast = .; RE007 growth inh = .; StopGo reporter = 32%; Cruzain noTriton = -1%; Cruzain Triton = -7.6%

# Back to the main list with the 2 entries that preceded the break.
SMILES,Lassa entry inh,Marburg entry inh,NS1 function inh,SARS PLpro yeast,RE007 growth inh,StopGo reporter,Cruzain noTriton,Cruzain Triton
CCOc1ccc(Nc2c(S(=O)(=O)c3ccc(C)cc3)cnc3ccccc23)cc1,.,?,.,.,.,?,1%,-3.9%
Cc1c(C(=O)N2CCCC2)oc2c1-c1nn(CC(=O)NCCCOC(C)C)cc1CC2,1%[46.1 µM],.,0%,3%,14%,?,10%,-1.0%
CCOc1ccc(C(=O)NCC(=O)Nc2ccc(N3CCOCC3)cc2)cc1OCC,.,.,22%,2%,29%,29%,.,.
Cc1nc(-c2ccccc2)nc2[nH]c(C(C)C)cc(=O)c12,-2%,-23%,-44%,-10%,-3%,.,4%,-3.7%
Cc1ncc(C[n+]2csc(CCO)c2C)c(N)n1,.,.,2%,9%,.,-6%&-16%,-3%,4.7%
COc1cccc(-c2cc(C(=O)N3CCN(c4ccc(F)cc4)CC3)no2)c1,-7%&36%[46.1 µM],?,3%,1%,1%,-3%&-10%,6%,-3.2%
COC(=O)c1ccc(NC(=O)CCn2cccc2)cc1,17%,3%,-8%,0%,2%,6%,-5%,-3.5%
CN1C/C(=C/c2cccs2)C(=O)/C(=C\c2cccs2)C1,6%[46.1 µM],-4%[46.1 µM],-5%,-5%,-20%,29%,.,.
Cc1ccc(S(=O)(=O)C2(C(=O)N3CCCC(C)C3)CC2)cc1 (stereo not drawn),20%,-8%,3%,3%,14%,11%,-4%,9.7%
COc1ccc(C2(c3ccc(OC)cc3)NC(=O)N(CC(=O)Nc3ccc(C(=O)N(C)C)cc3)C2=O)cc1,-14%,18%,-14%,-3%,0%,-17%,.,.
Cc1cc(Br)c2[nH]cc(CCNC(=O)c3ccco3)c2c1,.,.,-47%,-46%,-26%,-21%,.,.
Cc1cc(C)cc(N2CC(c3nnc(NC(=O)c4ccco4)s3)CC2=O)c1 (stereo not drawn),-5%[46.1 µM],-17%[46.1 µM],.,.,.,1%,-13%,-0.7%
COc1ccc(F)cc1C(=O)C1CCCN(Cc2c(C)n(C)n(-c3ccccc3)c2=O)C1 (stereo not drawn),-3%[46.1 µM],-9%[46.1 µM],1%,1%,-9%,-21%,.,.
O=C(OCCN1C(=O)c2cccc3c(N4CCOCC4)ccc(c23)C1=O)c1cccc(Cl)c1,?,?,?,16%,2%,?,-12%,-4.7%
COc1cccc(C(=O)c2cn(CC(=O)NCc3ccco3)c3nc(C)ccc3c2=O)c1,16%[46.1 µM],15%[46.1 µM],12%,2%,9%,-11%,.,.
CC(=O)c1cccc(N(C(=O)c2ccco2)C(C(=O)NC2CCCC2)c2ccc(N3CCOCC3)cc2)c1 (stereo not drawn),12%[46.1 µM],-2%[46.1 µM],-4%,0%,-19%,-2%,.,.
CC1(C)CC(CC(=O)Nc2ccc([N+](=O)[O-])cc2)C(=O)O1 (stereo not drawn),4%,-9%,21%,-4%,4%,-3%,-9%,-1.9%
Cc1cccc(C)c1NC(=O)CN(c1ccccn1)S(=O)(=O)c1ccc(F)cc1,1%[46.1 µM],13%[46.1 µM],.,2%,13%,-3%,.,.
Cc1cc(C)nc(/N=C2\NC(=O)CC(C(=O)O)N2CCc2c[nH]c3ccccc23)n1 (stereo not drawn),.,-3%,1%,1%,-9%,-21%,10%,2.3%
O=C(CCCn1c(=O)oc2ccccc21)N1CCc2ccccc2C1,6%,10%[46.1 µM],-6%,2%,-3%,41%[activator],1%,-1.8%
CCOC(=O)c1ccc(N2C(=O)C(O)=C(C(C)=O)C2c2ccc(O)c(OC)c2)cc1 (stereo not drawn),-10%,13%,6%,3%,3%,-2%,-10%,-1.2%
Cc1ccc(C(=O)N2CCN(c3ccccc3)CC2)cc1NC(=O)c1nsc2ccccc12,6%[46.1 µM],.,.,.,.,-30%,-8%,-0.1%
O=C(CNC(=O)c1ccco1)OCc1ccc(C(=O)c2ccccc2)cc1,?,?,-33%,-3%,18%,17%,.,.
Cc1c(C(=O)Nc2ccc(F)cc2)sc2ncn(CC(=O)N3CCCCC3)c(=O)c12,.,.,9%,-19%,-7%,-5%,.,.
O=S(=O)(c1ccc(C(F)(F)F)cc1)N1CCN(CCOc2ccccc2)CC1,-16%,-20%[46.1 µM],.,7%,-27%,-22%,.,.
O=C(NCc1nnnn1-c1ccc(F)cc1)C1CC(=O)N(c2ccc(F)cc2)C1 (stereo not drawn),14%,-5%,.,-1%,2%,2%,.,.
CCCC1(C(=O)O)NC(c2ccccc2O)C2C(=O)N(Cc3ccccc3)C(=O)C21 (stereo not drawn),.,.,-7%,5%,2%,3%,-7%,2.3%
O=C(O)CCC(=O)NCCC1=c2ccccc2=N/C1=C\c1c(O)n(Cc2ccc(F)cc2)c(=S)[nH]c1=O,-4%,-1%[46.1 µM],-5%,0%,-7%,-26%,.,.
CC(=O)c1cccc(NC(=O)c2ccc3c(c2)N(Cc2ccc(C)cc2)CCS3)c1,?,15%[46.1 µM],.,.,.,3%,13µM*,-13%
CNC(=O)C1CC(=O)N(CCc2ccc(OC)c(OC)c2)C(=Nc2ccc(F)cc2)S1 (stereo not drawn),7%[46.1 µM],11%[46.1 µM],5%,0%,7%,-19%,.,.
CCOc1ccc(CN2CCN(Cc3ccc4cc(F)ccc4n3)CC2CCO)cc1 (stereo not drawn),?,10µM*,-3%,3%,3%,-20%,.,.
CCOC(=O)C1CC(c2ccc(Cl)cc2)=NNC1=O (stereo not drawn),-11%[46.1 µM],-16%[46.1 µM],.,-1%,9%,-11%,.,.
CCc1ccccc1NC(=O)CN1C(=O)CCc2cc(S(=O)(=O)N3CCCCC3)ccc21,4%[46.1 µM],.,.,.,.,12%,13%,-2.3%
O=C(CN(C1CCCCC1)S(=O)(=O)c1ccc(F)cc1)NCC1CCCO1 (stereo not drawn),?,-11%[46.1 µM],.,.,-17%,-19%,.,.
CC1(C)S[C@@H]2[C@H](NC(=O)[C@H](C(=O)O)c3ccsc3)C(=O)N2[C@H]1C(=O)O,8%,?,-9%,4%,.,.,-1%&-7%,-4.6%&-2.7%
Cc1ccc(Oc2cc(NC(=O)CCCn3nc([N+](=O)[O-])c(Cl)c3C)cc([N+](=O)[O-])c2)cc1,?,9%,18%,-8%,1%,?,?,-6.6%
CC1(C)Cc2c(c(N3CCOCC3)nc3sc(C(N)=O)c(N)c23)CO1,10%,?,12%,-1%,7%,-28%,.,.
COc1ccc(/C=C2\SC(=O)N(CCCC(=O)Nc3ccc(C(=O)O)cc3)C2=O)cc1OC,-23%,-27%,13%,1%,1%,-18%,.,.
O=c1c2[nH]c3ccc(F)cc3c2ncn1Cc1ccncc1,-1%,1%,-5%,0%,3%,-8%,.,.

# An excerpt of these results, field by field:
COc1ccc(/C=C2\SC(=O)N(CCCC(=O)Nc3ccc(C(=O)O)cc3)C2=O)cc1OC
  Lassa entry inh: -23%
  Marburg entry inh: -27%
  NS1 function inh: 13%
  SARS PLpro yeast: 1%
  RE007 growth inh: 1%
  StopGo reporter: -18%
  Cruzain noTriton: .
  Cruzain Triton: .

O=c1c2[nH]c3ccc(F)cc3c2ncn1Cc1ccncc1
  Lassa entry inh: -1%
  Marburg entry inh: 1%
  NS1 function inh: -5%
  SARS PLpro yeast: 0%
  RE007 growth inh: 3%
  StopGo reporter: -8%
  Cruzain noTriton: .
  Cruzain Triton: .
